GIV-Gai inh – inhibitors of GIV GBA-motif binding to rat Galpha-i3. Galpha-i3/FITC-GIV peptide fluorescence polarization, 90 min; active compounds read low; scaled: aluminum fluoride 0%, vehicle 100%. 210,000 compounds, 0.42% hits. percent of control (FP), % (no concentration beside the values);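 active = replicate mean at 85% of control or lower, very high polarization wells dropped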;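 also: wells of about 15 µL received 100 nL stock; the first replicate is given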
Target sequence (P08753 whole entry, looked up): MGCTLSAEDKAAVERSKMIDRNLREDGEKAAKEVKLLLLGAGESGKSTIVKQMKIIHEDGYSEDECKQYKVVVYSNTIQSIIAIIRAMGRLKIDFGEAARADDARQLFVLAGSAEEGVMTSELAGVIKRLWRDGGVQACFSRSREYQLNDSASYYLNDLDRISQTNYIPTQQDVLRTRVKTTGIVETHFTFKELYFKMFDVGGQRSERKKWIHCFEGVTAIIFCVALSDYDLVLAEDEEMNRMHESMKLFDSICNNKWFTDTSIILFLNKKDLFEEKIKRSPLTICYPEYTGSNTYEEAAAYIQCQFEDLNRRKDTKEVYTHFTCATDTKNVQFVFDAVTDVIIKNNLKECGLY
* = called active by the depositor.

SMILES	GIV-Gai inh
Cc1nc(CCNC(=O)[C@H]2CSCN2S(=O)(=O)c2ccc(F)cc2)cs1	97
COc1ccc(-n2c(CN3CCN(S(C)(=O)=O)CC3)nc3cccnc32)cc1	101
O=P(CCCCOc1ccccc1CP(=O)(c1ccccc1)c1ccccc1)(c1ccccc1)c1ccccc1	105
Cc1cccc(C)c1Nc1c(-c2ccc(F)cc2)nc2cnc(Br)cn12	117
Cc1nc(-c2csc(S(=O)(=O)Nc3ccc(-c4nc5ccccc5[nH]4)cc3)c2)no1	100
Fc1ccc2nc3c(nc2c1)c1ccccc1n3Cc1csc(-c2ccc(Cl)cc2)n1	108
Cc1cc(N2CCCC2)nc(Nc2ccc(NC(=O)C3CCCO3)cc2)n1 (configuration not stated)	108
CS(=O)(=O)Nc1ccc2nc(S(C)(=O)=O)sc2c1	109
CCCCNC(=O)CC1SC(=NC)N(C)C1=O (configuration not stated)	107
CCOc1ccc(NC(=O)CSC2=C(C#N)C(c3ccc(Cl)cc3Cl)CC(=O)N2)cc1 (configuration not stated)	105
COC(=O)c1ccc(C2C(C(=O)OCC3CCCO3)=C(C)NC3=C2C(=O)CC(c2cccs2)C3)cc1 (configuration not stated)	128
COc1ccc(CNC(=O)C2(C)Cc3ccccc3C(=O)N2Cc2cccc(OC)c2)cc1 (configuration not stated)	102
CCN(CC)S(=O)(=O)c1ccc2c(c1)cc(C(=O)NCCc1c[nH]c3ccccc13)n2C	101
CC(=O)[C@@H]1[C@H]2C3COC(O3)C(=O)[C@@H]2[C@H]2C=Cc3ccccc3N21 (some centres not stated)	80*
CSc1nc2c(=O)[nH]c(N)nc2n1[C@@H]1O[C@H](CO)[C@H](O)C1O (some centres not stated)	116
CNS(=O)(=O)c1ccc2nc(NC(=O)c3ccc(N4C(=O)CCC4=O)cc3)sc2c1	97
CN1C(=O)CCc2cc(C(=O)NCC3CCCO3)ccc21 (configuration not stated)	101
COc1ccc(CCn2c(-c3ccc(Br)cc3)csc2=Nc2ccc(F)cc2)cc1OC	103
CCOC(=O)c1c(C)n(CCOc2ccc(-c3ccccc3)cc2)c2ccc(O)cc12	105
COc1cc(C2C3=C(CC(C)(C)CC3=O)OC3=C2C(=O)CC(C)(C)C3)cc(OC)c1OC(C)=O	105
CC(=O)C12c3ccccc3C(c3ccccc31)C1C(=O)N(c3ccccc3)C(=O)C12 (configuration not stated)	112
COCCn1c(C)cc(C(=O)NCc2nc3cccnc3n2Cc2ccc(C)cc2)c1C	120
CC(C)c1cc(C2CCCN2C(=O)NCC2CCCO2)on1 (configuration not stated)	102
Cc1nn(-c2nc3ccccc3[nH]2)c2c1C(c1ccccc1Cl)CC(=O)N2 (configuration not stated)	104
c1ccc(-c2nc(-c3cccc(-c4csc(C5CC5)n4)c3)no2)nc1	102
Further structures:
SMILES	GIV-Gai inh
Fc1ccc(Nc2ncnc3onc(-c4ccc(F)cc4)c23)cc1	104
COC(=O)c1cnn2c(C(F)(F)F)cc(C)nc12	109
O=C(NCCc1ccccc1)Nc1nccn(-c2ccc(Cl)cc2)c1=O	107
CSc1ccccc1NC(=O)c1ccc(N2CC3CC(C2)c2cccc(=O)n2C3)c(NC(=O)c2c(F)cccc2F)c1 (configuration not stated)	108
Cc1c(S(=O)(=O)N2CCc3ccccc3C2CN2C(=O)c3ccccc3C2=O)sc2ccc(Cl)cc12 (configuration not stated)	108
CC(C)c1[nH]nc2c1C1(C(=O)N(CC(=O)O)c3ccccc31)C(C#N)=C(N)O2 (configuration not stated)	108
O=C(Cn1nc(C(=O)Nc2ccccc2)ccc1=O)NCCc1ccccc1	102
COC(=O)c1ccc2c(=O)n(Cc3ccc(C(=O)NCCc4ccc(S(N)(=O)=O)cc4)cc3)c(=S)[nH]c2c1	107
Cc1cccc(-c2noc(CSc3nc4cc5c(cc4c(=O)n3CC3CCCO3)OCO5)n2)c1 (configuration not stated)	106
Clc1ccc(-n2ncc3c(NCc4ccc5c(c4)OCO5)ncnc32)cc1	108
O=C(O)c1cccc(N2C(=O)/C(=C/c3ccc(-c4ccc(Cl)c(Cl)c4)o3)C=C2c2ccccc2)c1	128
Cc1cc(C2CCCN2Cc2cc(Br)ccc2O)on1 (configuration not stated)	100
Cc1nnc(-c2coc(S(=O)(=O)N3CCCCCC3)c2)o1	105
Cc1ccc(-n2c(SCC(=O)Nc3ccccc3C(F)(F)F)nc3[nH]ncc3c2=O)cc1Cl	107
N#CC1=C(N)S[C@@H](C(=O)c2ccc(F)cc2)[C@@H]1c1cccs1	109
O=C(Nc1cccc(C(=O)N2CCCC(C(=O)NCC3CCCCC3)C2)c1)c1ccccc1Cl (configuration not stated)	107
CCC(=O)N1CCc2cc(N3CC(C(=O)N4CCC(C)CC4)CC3=O)ccc21 (configuration not stated)	101
Cc1ccc(-c2nsc3c(=O)n(C)c(SCC(=O)N4CCOc5ccc(C)cc54)nc23)cc1	101
O=C(CSc1nnc2c3ccccc3nc(-c3ccccc3)n12)Nc1nccs1	97
CC1CCCCN1C(=O)c1cc(NS(=O)(=O)c2ccc(C(C)(C)C)cc2)cnc1N1CCNCC1 (configuration not stated)	101
Fc1ccc(Nc2nc(NCc3ccco3)c3ccccc3n2)cc1	103
CC1CN(c2nc(-c3ccc([N+](=O)[O-])cc3)nc3ccccc23)CC(C)O1 (configuration not stated)	105
C=CCNc1nc(Nc2ccc(C)cc2)c2cnn(-c3ccccc3)c2n1	102
COc1cc(NC(=O)CCc2nc(-c3ccc(N4CCCC4)cc3)no2)cc(OC)c1	102
CCCN(CCC)CCCNC(=O)C(=O)Nc1cccc(C(F)(F)F)c1	112

As a working copy, part of the list above.
SMILES	GIV-Gai inh
O=C(NCCc1ccccc1)Nc1nccn(-c2ccc(Cl)cc2)c1=O	107
CSc1ccccc1NC(=O)c1ccc(N2CC3CC(C2)c2cccc(=O)n2C3)c(NC(=O)c2c(F)cccc2F)c1 (configuration not stated)	108
Cc1c(S(=O)(=O)N2CCc3ccccc3C2CN2C(=O)c3ccccc3C2=O)sc2ccc(Cl)cc12 (configuration not stated)	108
CC(C)c1[nH]nc2c1C1(C(=O)N(CC(=O)O)c3ccccc31)C(C#N)=C(N)O2 (configuration not stated)	108
O=C(Cn1nc(C(=O)Nc2ccccc2)ccc1=O)NCCc1ccccc1	102
COC(=O)c1ccc2c(=O)n(Cc3ccc(C(=O)NCCc4ccc(S(N)(=O)=O)cc4)cc3)c(=S)[nH]c2c1	107
Cc1cccc(-c2noc(CSc3nc4cc5c(cc4c(=O)n3CC3CCCO3)OCO5)n2)c1 (configuration not stated)	106
Clc1ccc(-n2ncc3c(NCc4ccc5c(c4)OCO5)ncnc32)cc1	108
O=C(O)c1cccc(N2C(=O)/C(=C/c3ccc(-c4ccc(Cl)c(Cl)c4)o3)C=C2c2ccccc2)c1	128
Cc1cc(C2CCCN2Cc2cc(Br)ccc2O)on1 (configuration not stated)	100
Cc1nnc(-c2coc(S(=O)(=O)N3CCCCCC3)c2)o1	105
Cc1ccc(-n2c(SCC(=O)Nc3ccccc3C(F)(F)F)nc3[nH]ncc3c2=O)cc1Cl	107
N#CC1=C(N)S[C@@H](C(=O)c2ccc(F)cc2)[C@@H]1c1cccs1	109
O=C(Nc1cccc(C(=O)N2CCCC(C(=O)NCC3CCCCC3)C2)c1)c1ccccc1Cl (configuration not stated)	107
CCC(=O)N1CCc2cc(N3CC(C(=O)N4CCC(C)CC4)CC3=O)ccc21 (configuration not stated)	101
Cc1ccc(-c2nsc3c(=O)n(C)c(SCC(=O)N4CCOc5ccc(C)cc54)nc23)cc1	101
O=C(CSc1nnc2c3ccccc3nc(-c3ccccc3)n12)Nc1nccs1	97
CC1CCCCN1C(=O)c1cc(NS(=O)(=O)c2ccc(C(C)(C)C)cc2)cnc1N1CCNCC1 (configuration not stated)	101
Fc1ccc(Nc2nc(NCc3ccco3)c3ccccc3n2)cc1	103
CC1CN(c2nc(-c3ccc([N+](=O)[O-])cc3)nc3ccccc23)CC(C)O1 (configuration not stated)	105
C=CCNc1nc(Nc2ccc(C)cc2)c2cnn(-c3ccccc3)c2n1	102

Following part
SMILES	GIV-Gai inh
CCCCCCc1c(-c2ccccc2)nc2nc(-c3ccccc3)c(-c3ccccc3)nn12	98
COc1ccc(OC)c(C2NC(=S)NC(C)=C2C(=O)Nc2cccc(Cl)c2C)c1 (configuration not stated)	111
CC1=C(C(=O)OC2CCCC2)C(c2coc3ccc(C)cc3c2=O)C2=C(CC(c3cccs3)CC2=O)N1 (configuration not stated)	111
C=CC(=O)N1c2cc(C)c(C)cc2-c2c(ssc2=S)C1(C)C	110
Cc1cc(C(=O)NC2CC2)on1	101
CCc1ccc(S(=O)(=O)N2CCOc3ccc(COCc4ccccc4F)cc3C2)cc1	97
Cc1cc2nc3c(=O)n(C)c(=O)n(C)c3nc2cc1N	95
Cc1cc(N(C)C)nc(N2CCN(S(=O)(=O)c3ccc4c(c3)Cc3ccccc3-4)CC2)n1	100
Cc1ccccc1CN1CCCN(c2cccc(C(=O)NCc3cccnc3)c2)C1=O	109
O=C(Nc1cnn(-c2ncc(N3CCCC3)cn2)c1)C1CCOC1 (configuration not stated)	110
COc1ccc(S(=O)(=O)Cc2nc(-c3ccc4c(c3)OCO4)no2)cc1	100
CCOC(=O)C1=C(C)N=c2s/c(=C/c3ccccc3O)c(=O)n2C1c1cc(OC)c(OC)cc1Br (configuration not stated)	118
O=C(Nc1ccc2c(c1)OCCO2)c1ccc(-c2cc(N3CCCC3)ncn2)cc1	108
CC1=C(C(=O)OCCOC(C)C)C2(O)C(=O)c3ccccc3C2(O)N1 (configuration not stated)	117
COc1ccc(C2=N/C(=C\c3coc4ccccc4c3=O)C(=O)O2)cc1Br	118
CCc1ccccc1NC(=O)CNS(=O)(=O)c1cc(-c2noc(C)n2)ccc1C	99
CN(C)c1ncncc1N1CCC(C(=O)NCCC2=CCCCC2)CC1	98
Nc1nc(SCC(=O)O)n[nH]1	105
COc1ccccc1-n1c(=O)c2c3c(sc2n(Cc2cc(C)ccc2C)c1=O)CN(C(C)=O)CC3	96
Fc1ccc(-c2cn3nc(-c4ccc(F)cc4)c(-c4ccc(F)cc4)nc3n2)cc1	103
Cc1ccc(C)c(S(=O)(=O)n2nnc3cc(Cl)ccc32)c1	120
CC1(C)CC(=O)C2=C(C1)OC1=C(C(=O)CC(C)(C)C1)C2c1cc(C(C)(C)C)c(O)c(C(C)(C)C)c1	104
O=c1oc2ccccc2cc1-c1nc(-c2ccc(Cl)cc2Cl)cs1	117
COCCNC(=O)N1CCC(N2CCN(Cc3ccc(C)cc3)C(=O)C2=O)CC1	100
CCOc1ccc(CN2CCCC2c2cc(C(C)C)on2)cc1OCC (configuration not stated)	101
(cont.)
SMILES	GIV-Gai inh
O=C1/C(=C\c2cn(-c3ccccc3)nc2-c2ccc(F)cc2)NC(=S)N1c1ccccc1	107
CCOc1ccc2c(c1)C1=C(SC(C(=O)OC)=C(C(=O)OC)C13SC(C(=O)OC)=C(C(=O)OC)S3)C(C)(C)N2C(=O)c1ccccc1	109
CCN(CC)C(=O)c1cc(NS(=O)(=O)c2c(C)cc(C)cc2C)cnc1N1CCNCC1	103
O=C1C=C(c2ccccc2)C[C@H](c2cccc([N+](=O)[O-])c2)[C@H]1n1nnc2ccccc21	106
COc1ccc(S(=O)(=O)Nc2cccc(-c3nnc(-c4ccccc4)o3)c2)cc1	104
COc1ccc2c(c1)c(CCN1C(=O)c3ccccc3C1=O)cn2C(=O)c1ccco1	105
CCOC(=O)C1=C(C)N=c2s/c(=C/c3ccc(N(CC)CC)o3)c(=O)n2C1c1ccccc1OC (configuration not stated)	105
Cc1ccc(C2N(Cc3ccccc3)CCN2Cc2ccccc2)s1	104
Cc1nc(-c2cc(S(=O)(=O)N3CCCCCC3)c(C)s2)sc1C	103
COc1ccccc1C(C1C(=O)N(c2ccccc2)N=C1C)C1C(=O)N(c2ccccc2)N=C1C (configuration not stated)	114
CC(C)c1ccc(NC(=O)CSc2nc3[nH]ncc3c(=O)n2-c2cccc(Cl)c2Cl)cc1	105
Cc1nnc2ccc(-c3noc(-c4ccc5c(c4)OCO5)n3)cn12	119
Cc1ccc(-c2ccc(N3CCOCC3)nn2)cc1S(=O)(=O)N1CCOCC1	101
O=C(c1c[nH]c2ccc(S(=O)(=O)N3CCC4(CC3)OCCO4)cc2c1=O)N1CCN(c2ccccn2)CC1	97
Cc1ccc(NC(=O)c2sc3ncn(CC(=O)N4CCC(C)CC4)c(=O)c3c2C)c(Br)c1	104
CC(=O)OCC1OC(Oc2ccc(C(=O)O)cc2OC2OC(COC(C)=O)C(OC(C)=O)C(OC(C)=O)C2OC(C)=O)C(OC(C)=O)C(OC(C)=O)C1OC(C)=O (configuration not stated)	107
c1ccc2c(c1)CC1(CCCC1)N=C2N1CCOCC1	103

A few values from the results shown.
For GIV-Gai inh, O=C(NCCc1ccccc1)Nc1nccn(-c2ccc(Cl)cc2)c1=O has the entry 107
For GIV-Gai inh, O=C(O)c1cccc(N2C(=O)/C(=C/c3ccc(-c4ccc(Cl)c(Cl)c4)o3)C=C2c2ccccc2)c1 has the entry 128

Screens deposited in PubChem by ICCB-Longwood Screening Facility, Harvard Medical School.

An excerpt; the hit share may differ from the screen's.
